Beta cell apopt: blocks beta cell apoptosis; INS-1E cytokine-induced death, ATP luminescence, 48 h; percent of positive-control rescue, neutral wells zero; protection from apoptosis, % (concentration not given with the values); 300,000 tested, 0.8% active;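 active = all replicates at 75% or more, or half of them and the mean; inconclusive = half reach 75% but not the mean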;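 note: 0% = cytokine-treated negative control wells and 100% = positive control rescue; higher means more ATP so stronger rescue from cytokine killing; wells of about 40 µL received 100 nL stock; the first replicate is given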
RanGTP-Impb inh: disruptors of Ran-importin-beta complex formation – biochemical, FRET, CFP-Ran, YFP-importin-beta, homogeneous, primary screen; inhibition, % (concentration not given with the values); AID 2216; 300,000 tested, 1.1% active; cell-free CFP-Ran/YFP-importin-beta FRET ratio;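 active = most replicates above 15%; inconclusive = exactly half above 15%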;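 note: 0% = DMSO wells and 100% = Ran loaded with GDP instead of GTP; wells of about 40 µL received 100 nL stock; the first replicate is given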
LANA-H2B inh: blocks KSHV LANA binding to histone H2A/H2B. 320,000 tested, 0.6% active. inhibition, % (test concentration not listed). Q9QR71. cell-free LANA-H2A/H2B peptide, fluorescence polarization; in the data active = inhibition mostly above about 10%, no sharp cut-off; inactive = mostly below about 6.7%;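 note: stock transfer was 7.5 nL into about 10 µL; 0% = median of vehicle wells and 100% = median of positive control wells; one replicate is shown; the record names a cut of 25% in any replicate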
Bfl-1 A1 inh: inhibitors of the anti-apoptotic protein A1, read as caspase activation; MEF A1-2A-BIM cells, Caspase-Glo 3/7 luminescence, 3 h; percent of clofoctol response, vehicle zero; caspase activation, % (no concentration beside the values); 330,000 tested, 0.066% active; AID 2462;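 active = over half of replicate activation scores above 10%, or exactly half above 10 with the replicate mean above 10; inconclusive = replicate mean below 10 yet half the replicates above 10; inactive = over half of replicates below 10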;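 note: wells of about 30 µL received 50 nL stock; many hits fall short of the cut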
T cruzi repl: T. cruzi replication inhibition; T. cruzi beta-gal in NIH3T3, luminescence, 90 h; inhibition, % (no concentration beside the values); 300,000 tested, 1.4% active;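 active = mean inhibition across valid replicates above about 55%, limit read from the data; inconclusive = mean below that limit but half or more replicates reach it; inactive = mean below it, under half of replicates reach it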;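 note: signal also drops with host cell toxicity which is not excluded here; 0% = plate median of DMSO wells and 100% = zero luminescence signal; higher percent means less beta-gal luminescence so fewer parasites; stock transfer was 50 nL into about 50 µL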
UCH37 inh: blocks the human deubiquitinase UCH37 | Q9Y5K5 | purified proteasome/UCH37, Ub-AMC cleavage fluorescence | inhibition, % (no concentration beside the values) | 330,000 tested, 0.33% active;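 active = mean of two replicates above 20%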;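 note: 0% = compound-free wells with enzyme and 100% = wells lacking proteasome; stock transfer was 100 nL into about 20 µL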
Target sequence (Q9Y5K5 whole entry, looked up): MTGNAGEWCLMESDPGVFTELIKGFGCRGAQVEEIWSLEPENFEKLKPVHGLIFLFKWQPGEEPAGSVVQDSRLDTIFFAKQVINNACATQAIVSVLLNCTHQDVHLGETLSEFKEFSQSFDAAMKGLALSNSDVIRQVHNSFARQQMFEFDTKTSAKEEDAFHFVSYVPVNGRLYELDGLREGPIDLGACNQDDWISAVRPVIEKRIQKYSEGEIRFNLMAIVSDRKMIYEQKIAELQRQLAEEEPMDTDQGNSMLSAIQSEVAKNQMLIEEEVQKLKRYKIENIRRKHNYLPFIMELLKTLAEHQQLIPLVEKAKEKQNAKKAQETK
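Assay system: Proteasome-bound UCH37. Buffer or medium: pH 7.4 Tris-HCl (50 mM) with ovalbumin, ATP-MgCl2, DTT. Incubation: 30 min preincubation with enzyme, 25 min cleavage at room temperature. Measured by: fluorescence, ex 355 nm, em 460 nm. Read-out basis: percent inhibition. Control set: wells without proteasome as full block, compound-free enzyme plus substrate as uninhibited.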
Calb FLC: affects C. albicans growth with fluconazole; C. albicans CaCi-2 (fluconazole-resistant clinical isolate) + fluconazole, Alamar Blue growth, 48 h; growth inhibition, % (no concentration beside the values); 300,000 tested, 0.57% active;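 active = most replicates above 75%; inconclusive = exactly half above 75%; inactive = most below 75%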;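 note: all wells also contain fluconazole at 8 µg/ml as a sub-toxic cotreatment; 0% = median of DMSO wells and 100% = median of geldanamycin control wells; wells of about 8 µL received 7.5 nL stock; the first replicate is given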
Beta2AR agonist: agonists of human beta-2 adrenergic receptor inducing internalization. P07550. Am2.2-beta2AR cells, FAP receptor internalization, flow cytometry; reference of the scale not given here. response, % (no concentration beside the values). 340,000 tested, 0.43% active. AID 504454;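 active = response above a set limit, near 3 SD of response in nonfluorescent compounds, cut at about 42% in these data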;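 note: stock transfer was 100 nL into about 11 µL; a reference agonist was the positive control; negative values mostly stem from fluorescent compounds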
Target sequence (P07550 whole entry, looked up): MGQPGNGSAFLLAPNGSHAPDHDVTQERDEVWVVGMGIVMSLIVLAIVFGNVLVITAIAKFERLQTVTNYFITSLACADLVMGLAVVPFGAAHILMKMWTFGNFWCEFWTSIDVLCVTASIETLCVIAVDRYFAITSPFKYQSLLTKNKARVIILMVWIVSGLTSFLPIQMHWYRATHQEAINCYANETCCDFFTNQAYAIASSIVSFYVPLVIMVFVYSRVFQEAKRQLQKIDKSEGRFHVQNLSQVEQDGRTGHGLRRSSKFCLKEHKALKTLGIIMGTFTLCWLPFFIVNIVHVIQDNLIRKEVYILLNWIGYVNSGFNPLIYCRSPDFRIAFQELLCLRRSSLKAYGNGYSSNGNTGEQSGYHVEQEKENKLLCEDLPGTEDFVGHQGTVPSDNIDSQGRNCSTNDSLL
Starred values were filed as active, the others as inactive; i = inactive; u = inconclusive; x = no result given. Rows were taken by chance, and some 4.3% of all compounds hit somewhere here.

SMILES | Beta cell apopt | RanGTP-Impb inh | LANA-H2B inh | Bfl-1 A1 inh | T cruzi repl | UCH37 inh | Calb FLC | Beta2AR agonist
CCOC(=O)c1c(C)nc(C)c(C(=O)OCC)c1-c1ccc(OC)cc1 | 2 | -1.6 | -0.9 | 0.1 | 11 | 0.9 | 2 | -2
O=C1CCC(=O)N1CN(C(=O)c1ccco1)c1ccccc1 | 0 | 0.4 | 2.9 | 1.2 | -13 | -0.9 | 2 | -4
O=C(NC(=S)Nc1ncc(Br)cc1Br)c1ccccc1 | -1 | -0.8 | -0.9 | -0.2 | 12 | 0.9 | -3 | -10
CSc1nsc(SC)c1C(=O)Nc1ccc(Cl)cc1 | -2 | 9.8 | -2.5 | 1.2 | x | 4.9 | 26 | -1
O=C(/C=C/c1cccs1)c1ccc([N+](=O)[O-])cc1 | -1 | 2.4 | -0.8 | -0.5 | -3 | 4.3 | 5 | -1
CC(C)(C)c1cc(NCCCn2ccnc2)n2ncc(-c3ccc(Cl)cc3)c2n1 | 9 | -4.7 | -1.4 | u | 58* | i | 10 | 2
CN(C)c1ccc(C2=NOC(CN3C(=O)c4ccccc4S3(=O)=O)C2)cc1 (stereo not given) | -5 | 0.5 | 6.2 | -0.4 | -6 | 5.5 | -7 | 14
O=C(CN1CCC(Cc2ccccc2)CC1)NC(=O)NC1CCCCC1 | 1 | u | 0.2 | -0.2 | 26 | -2.6 | -8 | 1
O=C(NNC(=O)C1CCCCC1)c1ccc(Br)cc1 | -5 | 2.2 | 5.9 | -0.1 | 5 | 2.2 | -5 | 0
CN(c1ccc(F)cc1)S(=O)(=O)c1ccc(Cl)c(C(=O)OCC(=O)NC2CC2)c1 | -8 | x | 1.5 | u | x | 0.4 | x | 9
CC(C)COc1ccc(C(=O)NCc2ccco2)cc1 | 1 | -0.2 | 3.3 | -1.0 | 6 | 0.8 | 42 | 0
COC(=O)c1ccccc1NC(=S)N(Cc1ccc2c(c1)OCO2)Cc1cc2ccc(OC)cc2[nH]c1=O | 2 | 0.9 | -7.1 | -1.0 | 37 | x | 37 | -1
O=C1CC(NCc2ccc3c(c2)OCO3)C(=O)N1CCc1ccccc1 (stereo not given) | x | 8.1 | -0.5 | -0.4 | -2 | 0.9 | 2 | 2
O=C(NCCc1ccc(Cl)cc1)C1COc2ccccc2O1 (stereo not given) | x | u | 1.4 | -0.1 | 0 | 7.1 | 11 | 3
COc1cccc(NC(=O)CN(C)C(C)C(=O)N2CCCCC2)c1 (stereo not given) | -3 | x | 3.7 | 0.4 | x | 0.8 | x | 6
O=c1oc(-c2cccs2)nc2ccccc12 | -3 | -1.0 | -4.0 | -2.2 | -2 | -6.9 | -12 | 2
O=C(c1ccc(NC(=S)Nc2ccc(F)cc2F)cc1)N1CCOCC1 | -2 | 5.5 | 0.4 | -1.0 | -18 | 4.9 | 4 | 2
Cc1nc(C)c(C(=O)N(c2ccc(F)cc2)C(C(=O)NCC2CCCO2)c2ccccc2)s1 (stereo not given) | 2 | 11 | -3.6 | -1.0 | -3 | 3.0 | -5 | 0
O=C(Nc1nccs1)c1cc2cc(Cl)ccc2oc1=O | -7 | 4.6 | -5.8 | 0.2 | -9 | 1.6 | 2 | 9
CCC(=O)N1CCc2cc(S(=O)(=O)CCC(=O)N(C)c3ccc(OC)cc3)ccc21 | -6 | -3.0 | 0.0 | 2.2 | 7 | 5.4 | -7 | -11
CC(=O)c1ccc(NS(=O)(=O)c2ccc3ccccc3c2)cc1 | 2 | -3.3 | 9.9 | 0.2 | 1 | 3.8 | -2 | -5
O=[N+]([O-])c1cccc(/C=N/n2c(-c3cccnc3)n[nH]c2=S)c1 | -2 | 0.4 | -2.9 | 0.2 | -9 | x | 3 | -7
COc1cccc(OCCn2ccnc2)c1 | 1 | -2.8 | -0.4 | -0.6 | -14 | 0.2 | -10 | 3
COc1ccc(NC2=C(Cl)C(=O)N(c3ccccc3)C2=O)c(OC)c1 | -8 | -0.4 | 15* | -0.5 | -19 | 1.2 | -7 | -6
CC1(C)C(=O)Nc2ccccc2N1C(=O)COC(=O)Cn1cnc2ccccc2c1=O | 3 | 1.4 | -2.9 | 1.6 | -14 | 1.8 | 7 | -5
CC1(C)Oc2ccc(C(=O)NC3CC3)cc2N(CC(=O)N2CCOCC2)C1=O | -1 | 2.5 | -1.6 | -0.9 | -9 | 2.7 | -8 | 5
COc1ccc(Br)cc1/C=N/NC(=O)c1nc(-c2ccccc2)n2c1CCCCC2 | 12 | -0.5 | -2.8 | 0.4 | 29 | x | 60 | -2
O=C(Cc1c(F)cccc1Cl)Nc1ccon1 | -4 | 3.7 | -3.2 | -0.4 | -5 | 1.5 | -6 | 2
O=C(NCCN1C(=O)S/C(=C\c2cccnc2)C1=O)c1cc(S(=O)(=O)N2CCOCC2)ccc1F | -4 | -1.6 | -0.4 | u | -6 | 3.8 | 4 | -1
COCCn1c(SCC(=O)NCCc2ccc(OC)c(OC)c2)nc2c([nH]c3ccccc32)c1=O | -8 | u | 1.1 | -0.1 | 6 | -2.8 | 9 | 0
COCCNC(=O)C1Cc2c(ccc3ccccc23)O1 (stereo not given) | -1 | 5.9 | -5.1 | 0.4 | -9 | -7.9 | -12 | -5
O=[N+]([O-])c1cccc(S(=O)(=O)N/N=C\c2ccc3c(c2)OCO3)c1 | -4 | -0.5 | -0.1 | -0.8 | -14 | x | -12 | 4
CCN(C(=O)CSc1nnnn1-c1ccc(Cl)cc1)C1CCS(=O)(=O)C1 (stereo not given) | 1 | x | -4.2 | 1.6 | x | 0.7 | x | -4
O=C(NCCCCNC(=O)c1cccnc1Cl)c1cccnc1Cl | 0 | -0.5 | 2.6 | -0.6 | -4 | 5.6 | 7 | -3
C#CCNC(=O)C1=C[C@H](c2ccc(Br)cc2)[C@@H](CCCO)[C@H](OCC)O1 | x | -2.4 | 1.9 | -1.2 | -10 | 0.3 | 15 | -3
O=C(O)Cn1cc(C(=O)C2CC2)c2ccccc21 | 8 | -0.3 | -1.1 | -0.8 | -4 | 4.8 | -3 | 0
CC(=O)Nc1ccc(NC(=O)COC(=O)[C@@H](NC(=O)c2ccc(F)cc2)C(C)C)cc1 | 3 | -2.7 | 0.1 | 0.2 | -5 | 4.5 | 17 | -2
C/C(CC(=O)Nc1cccc2c1CCCC2)=N\NC(=O)Cc1ccccc1 | -4 | 0.0 | -4.6 | -0.2 | 2 | x | -1 | -6
Cc1cc(C)c(S(=O)(=O)N2CCCCC2CCNC(=O)C(=O)NCc2ccccn2)c(C)c1 (stereo not given) | x | 0.8 | -0.3 | 0.5 | 10 | 1.6 | -9 | -5
O=C(CC1SC(=Nc2ccccc2F)N(CCN2CCOCC2)C1=O)Nc1ccc(F)cc1F (stereo not given) | -8 | 4.9 | -0.9 | -0.5 | 11 | 3.2 | 24 | -4
CC(=O)N1CCN(C(=O)c2cccc(S(=O)(=O)N3CCN(c4ccc(F)cc4)CC3)c2)CC1 | x | 3.2 | 4.1 | 0.1 | -8 | 1.6 | -3 | 2
CN(C(=O)CSc1ncnc2ccccc12)C1CCS(=O)(=O)C1 (stereo not given) | -8 | x | 2.7 | 0.3 | x | 3.2 | x | 3
O=C(COC(=O)c1cccc([N+](=O)[O-])c1)Nc1ccc(Cl)cn1 | -4 | -0.3 | -3.2 | 0.6 | -4 | 0.3 | 0 | 0
COC(c1ccccc1)c1nnc(CCC(=O)NCc2ccc3ncccc3c2)o1 (stereo not given) | -9 | -1.2 | 9.1 | -0.5 | 4 | -2.1 | 14 | -1
Cc1ccc(CNC(=O)C2CCN(c3nc(C)cc(C)n3)CC2)cc1 | -5 | -0.5 | -2.9 | 0.4 | 0 | 1.0 | -1 | 16
COc1ccc(CCNC(=O)CS(=O)Cc2nc(-c3ccc(C)cc3)oc2C)cc1OC (stereo not given) | -1 | 2.4 | -2.3 | -1.0 | -1 | 2.9 | -5 | -3
COC(=O)C1CCC(=S)N1C(=O)c1ccccc1 (stereo not given) | -4 | 0.5 | -0.8 | 0.3 | -7 | 3.7 | 8 | 3
O=C(Nc1ccccc1C(=O)N1CCCCCC1)c1cccc([N+](=O)[O-])c1 | -11 | 2.6 | -0.2 | 0.3 | -11 | 3.9 | -2 | -15
COc1ccc(OCc2cc(C(=O)N3CCCCCCC3)no2)c(Cl)c1 | -8 | 1.3 | -1.0 | -0.1 | 8 | 0.1 | 16 | 0
O=C(CN1C(=O)NC2(CCCCC2)C1=O)NCCc1ccc(Cl)cc1Cl | 0 | x | -2.1 | 1.4 | x | 0.1 | x | -9

The final 2 compounds of the section before lead into the next:
SMILES | Beta cell apopt | RanGTP-Impb inh | LANA-H2B inh | Bfl-1 A1 inh | T cruzi repl | UCH37 inh | Calb FLC | Beta2AR agonist
COc1ccc(OCc2cc(C(=O)N3CCCCCCC3)no2)c(Cl)c1 | -8 | 1.3 | -1.0 | -0.1 | 8 | 0.1 | 16 | 0
O=C(CN1C(=O)NC2(CCCCC2)C1=O)NCCc1ccc(Cl)cc1Cl | 0 | x | -2.1 | 1.4 | x | 0.1 | x | -9
O=C(NNC(=O)c1ccccc1Cl)c1cccs1 | -7 | -6.2 | -0.7 | 0.8 | -5 | 2.4 | 0 | -2
CCOC(=O)c1ccccc1NC(=S)N1CCC(C(N)=O)CC1 | -7 | 2.1 | 2.9 | 0.5 | -5 | 2.7 | -1 | 2
Cc1ccc(CCNC(=O)C2CCC(CNc3c(N4CCC(C)CC4)c(=O)c3=O)CC2)cc1 (stereo not given) | 2 | u | -1.1 | 0.3 | 17 | 6.8 | 21 | 9
COc1ccc(-c2nc(SCC(=O)N(CC(C)C)c3c(N)n(Cc4ccccc4)c(=O)[nH]c3=O)n[nH]2)cc1 | -2 | 5.0 | -4.8 | -2.1 | 1 | -0.7 | x | 3
NC(=O)COc1ccc2cc(-c3ccc(F)cc3)c(=O)oc2c1 | -5 | 2.5 | -1.5 | -3.9 | -19 | -463 | -5 | -4
COc1ccc(Cc2c(O)nc(SCC(=O)N3CCOCC3)[nH]c2=O)cc1 | -8 | 6.0 | -2.5 | 0.1 | -4 | 3.0 | 3 | 1
COc1ccc(S(=O)(=O)N2CCC(C(=O)Nc3ccc(F)cc3)CC2)c2cccnc12 | 6 | 1.0 | -6.4 | -0.2 | -10 | 1.9 | 10 | -6
CN1C(=O)c2ccccc2C(C(=O)NCCCN2CCCC2)C1c1c[nH]c2ccccc12 (stereo not given) | -5 | -3.0 | x | -0.2 | -12 | 5.5 | 1 | -8
Cc1ccc(NS(=O)(=O)c2ccc(Br)cc2)nc1 | -9 | -1.7 | 3.1 | 0.1 | -7 | -30 | 24 | 7
O=C(N1CCOCC1)C1(S(=O)(=O)c2ccccc2)CC=CC1 | -8 | 2.0 | 2.4 | 0.0 | -8 | x | 0 | -2
CCOC(=O)N1CCN(C(=O)COC(=O)Cc2ccc(OC)cc2)CC1 | 0 | 1.3 | 0.5 | 1.0 | x | -0.2 | -1 | -3
O=C(NC(C1CC1)C1CC1)C1CCC(=O)N(CCCN2CCCC2=O)C1 (stereo not given) | -8 | 2.1 | -0.5 | -1.5 | -4 | -2.2 | 12 | 0

Compound activity as filed in PubChem.
